Assay outcomes (PubChem)
PINK1 expr mod = A Quantitative High throughput Screen to Identify Chemical Modulators of PINK1 Expression; PINK1 immunofluorescence, high-content cytometry, 24 h; AID 624263, 2012; hit rate 0.2% among 410,000; Potency, µM (series often up to 76.6 µM), without a hit: at the top dose activation (PINK1 increase), usual class: activators; active = well fitted activation curve with a large enough effect; inconclusive = small, poorly fitted or top-dose-only effect; inactive = flat fitted curve, though single readings scatter; cell line not stated here;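 further: potency means the concentration at half of the fitted maximal effect; % of control where 0% means no effect; nearly all actives have a fitted effect of over 65% in size; a mitochondrial uncoupler was the plate control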
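Decision-based qHTS: stable cells, 24 h exposure to five compound concentrations, CCCP as control. Fixed cells stained for PINK1 plus nuclear, mitochondrial and cell markers, cytometer read.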
TRPML1 ag = qHTS for Agonists of the Human Mucolipin Transient Receptor Potential 1 (TRPML1); AID 624414, 2012; Mucolipin-1 (Homo sapiens), Q9GZU1; activation, % (no concentration beside the values); TRPML1-expressing cells, Ca2+ dye fluorescence, FDSS; host cell line not named in the record; reference of the full effect not given here; hit rate 0.12% among 410,000; in the data active = activation above about 50%; inconclusive = about 30% to 50%; inactive = below about 30%; further: 0% is about no effect; the text of the record puts the active cut at 80%
Target sequence (Q9GZU1 whole entry, looked up): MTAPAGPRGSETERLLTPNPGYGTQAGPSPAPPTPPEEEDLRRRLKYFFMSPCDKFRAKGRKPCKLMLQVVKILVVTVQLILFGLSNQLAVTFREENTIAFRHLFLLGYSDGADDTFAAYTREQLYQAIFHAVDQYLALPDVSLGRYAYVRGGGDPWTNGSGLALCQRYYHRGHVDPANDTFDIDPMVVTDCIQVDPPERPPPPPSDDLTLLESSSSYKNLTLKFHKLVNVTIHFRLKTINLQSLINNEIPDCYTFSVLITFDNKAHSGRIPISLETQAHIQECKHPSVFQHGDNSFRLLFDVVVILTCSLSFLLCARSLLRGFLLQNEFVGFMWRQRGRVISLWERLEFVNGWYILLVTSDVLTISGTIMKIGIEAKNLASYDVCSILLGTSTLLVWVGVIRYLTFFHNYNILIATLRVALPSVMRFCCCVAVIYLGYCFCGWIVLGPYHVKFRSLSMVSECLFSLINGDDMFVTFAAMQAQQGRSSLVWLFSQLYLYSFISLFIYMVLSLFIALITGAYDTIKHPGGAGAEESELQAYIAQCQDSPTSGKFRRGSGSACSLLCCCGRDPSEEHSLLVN
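Cells: TRPML1-DL, 1X Tet inducer, ~16 h at 37 degrees C/5% CO2. Dye: ABD Ca8 no-wash + quencher, 45-90 min RT. Read: 10 s baseline, compound add, 110 s agonist phase; 54-4 EC80 (4uM final), 110 s antagonist phase.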
D2 agonist = Beta-Arrestin HTS for Positive Allosteric Modulators of the Human D2 Dopamine Receptor: Agonists | D(2) dopamine receptor (Homo sapiens), P14416 | DiscoveRx PathHunter D2 beta-arrestin, luminescence, 90 min; 100% = 57 uM dopamine signal | activation, % (test concentration not listed) | hit rate 0.084% among 360,000 | AID 624465, 2012; in the data active = activation above about 40%; inconclusive = about 15% to 40%; inactive = below about 15%; further: compound concentration not given in the record; the text of the record calls up to 30% inactive
Target sequence (P14416 whole entry, looked up): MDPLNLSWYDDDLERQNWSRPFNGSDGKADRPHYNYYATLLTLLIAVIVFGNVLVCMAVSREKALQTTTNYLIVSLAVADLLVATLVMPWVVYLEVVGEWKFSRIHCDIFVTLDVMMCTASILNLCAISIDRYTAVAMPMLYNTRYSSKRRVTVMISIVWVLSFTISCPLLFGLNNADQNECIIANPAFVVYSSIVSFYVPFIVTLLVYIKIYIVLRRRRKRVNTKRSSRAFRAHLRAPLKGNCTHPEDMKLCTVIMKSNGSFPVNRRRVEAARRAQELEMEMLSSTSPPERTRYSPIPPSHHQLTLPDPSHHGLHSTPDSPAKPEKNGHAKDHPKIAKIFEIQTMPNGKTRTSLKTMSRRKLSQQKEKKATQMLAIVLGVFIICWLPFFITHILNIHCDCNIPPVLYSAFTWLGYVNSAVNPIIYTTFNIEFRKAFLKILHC
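DiscoveRx PathHunter D2 beta-arrestin cells (2,100/well) attached overnight, then compound-stimulated 90 min at 37 C in HBSS/10 mM HEPES/0.1% Tween-20 buffer; beta-galactosidase complementation read by luminescence after 1 h at ambient temperature. Dopamine 57 uM final (EC100) as control.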
Six1-Eya2 blk = qHTS Assay for Inhibitors of the Six1/Eya2 Interaction; activity change, % (test concentration not listed); hit rate 0.56% among 360,000; AlphaScreen GST-Six1/His-Eya2 binding, biochemical; stronger effect = lower value; control for the full effect not named in the record; AID 651725, 2012; Homeobox protein SIX1 (Homo sapiens) + Protein phosphatase EYA2 (Homo sapiens), …; in the data active = activity change below about -65%; inconclusive = about -30% to -65%; inactive = above about -30%; further: on the % scale 0 is the no-effect control and ±100 the full control effect; compound concentration not given in the record
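Six1/Eya2 binding was read as AlphaScreen signal after compounds were pinned into GST-Six1 plus His-tagged Eya2 (5X stock 250/500 nM) in pH 8.0 Tris/NaCl/TCEP buffer, beads added, then incubated 1 h, 37 C, dark.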
D2 potentiator = Beta-Arrestin HTS for Positive Allosteric Modulators of the Human D2 Dopamine Receptor: Potentiators | D(2) dopamine receptor (Homo sapiens), P14416 | potentiation, % (test concentration not listed) | hit rate 0.23% among 360,000 | DiscoveRx D2 beta-arrestin cells, luminescence, 90 min; 100% = 57 uM dopamine signal; active = potentiation of 50% or more; inconclusive = 30% to 50%; inactive = 30% or less;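 further: compound concentration not given in the record; tested on top of an EC20 dose of dopamine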
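PathHunter beta-arrestin assay in DiscoveRx D2 cells. Compounds were added with an EC20 of dopamine (50 nM final) for 90 min at 37 deg C. Luminescence was read 1 h after detection reagent, with 57 uM dopamine as the EC100 control.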
TRPML1 inh = qHTS for Inhibitors of the Human Mucolipin Transient Receptor Potential 1 (TRPML1). TRPML1-inducible cells, Ca2+ dye fluorescence, FDSS; stronger effect = lower value; inhibition of EC80 agonist-evoked calcium signal. activity change, negative = inhibition, % (test concentration not listed). hit rate 0.02% among 390,000. AID 624415, 2012; in the data active means activity change below about -50%; inconclusive means about -30% to -50%; inactive means above about -30%;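 further: stimulus is agonist 54-4 at its EC80 concentration; on the % scale 0 is the no-effect control and ±100 the full control effect; compound concentration not given in the record; the text of the record puts the active cut at -80%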
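Calcium fluorescence in TRPML1-DL cells induced overnight with Tet: a 110 s read after compound pin addition, then a 110 s antagonist read after challenge with 54-4 at 4 uM final (EC80).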
Numbers without * were called inactive; ? = inconclusive; . = not tested or not shown; & = joins results of further samples; [ ] = remark or other dose.

Preview (2 entries):
Value order: PINK1 expr mod, TRPML1 ag, D2 agonist, Six1-Eya2 blk, D2 potentiator, TRPML1 inh
COc1ncnc2c1ncn2CCCN1CCN(c2ncccn2)CC1
    1.4%, -0.5, -4.0, 9.4, 0.6, -8.6
Cc1ccc(S(=O)(=O)Nc2ccccc2C(=O)Nc2ccc(S(=O)(=O)Nc3nccc(C)n3)cc2)cc1
    -1.5%, -0.5, -5.2, -6.5, -15.6, 5.0

The listing, previewed entries included:
Value order: PINK1 expr mod, TRPML1 ag, D2 agonist, Six1-Eya2 blk, D2 potentiator, TRPML1 inh
COc1ncnc2c1ncn2CCCN1CCN(c2ncccn2)CC1
    1.4%, -0.5, -4.0, 9.4, 0.6, -8.6
Cc1ccc(S(=O)(=O)Nc2ccccc2C(=O)Nc2ccc(S(=O)(=O)Nc3nccc(C)n3)cc2)cc1
    -1.5%, -0.5, -5.2, -6.5, -15.6, 5.0
O=C(Cc1ccc(F)cc1)Nc1ccc(S(=O)(=O)N2CCCCC2)cc1
    -0.5%, 1.1, 1.2, -10.2, -3.7, -12.3
CCOC(=O)c1sc2nc(C)nc(NCCc3ccccn3)c2c1C
    1.1%, 1.9, -0.2, -24.4, -7.5, 5.2
CC(C)=CCC[C@](C)(O)C1CC[C@]2(C)C1[C@H](O)CC1[C@@]3(C)CC[C@H](O[C@@H]4O[C@H](CO)[C@@H](O)[C@H](O)[C@H]4O[C@@H]4O[C@H](CO)[C@@H](O)[C@H](O)[C@H]4O)C(C)(C)C3CC[C@]12C (some centres not stated)
    4.3%, -0.1, -1.1, -3.9, -11.5, -26.6
Cc1ccc(NC(=O)NC2(C(=O)NCc3ccccc3)CCCCC2)cc1
    ., -0.4, -5.1, -0.7, -3.3, -2.2
COc1cc(/C=N\NC(=O)CNC(=O)c2cccc([N+](=O)[O-])c2)ccc1O
    0.3%, -0.2, -4.2, -2.9, -1.9, 2.9
COc1ccc(S(=O)(=O)N2CCC(C(=O)N[C@@H](C)C(=O)NCc3cccnc3)CC2)cc1
    1.2%, -0.4, -0.8, 2.4, -6.2, 6.7
CC(Oc1ccc(Cl)cc1)c1ccnn1S(C)(=O)=O (configuration not stated)
    -0.8%, -1.4, 0.7, 9.2, -8.0, -4.9
CC(C)(C)OC(=O)N[C@@H](C(=O)OC(C)(C)C)c1ccc(Br)cc1
    ?, 1.9, -1.2, 15.3, -6.8, 5.0
Cc1cccc(N2CCN(C(=O)NCc3noc4ccccc34)CC2)c1C
    -1.5%, 2.5, ., ., ., -2.9
O=C(O)c1ccc(N2C(=O)CC(SC(=NCc3ccc4c(c3)OCO4)Nc3ccc(F)cc3)C2=O)cc1 (configuration not stated)
    4.0%, 0.4, 0.6, 0.0, -1.9, -4.1
COc1ccc(CN2CCc3ccccc3C2)c(OC)c1
    2.1%, -0.2, -1.9, -2.5, -23.2, -7.8
CC(=O)c1ccc(NC(=O)CCc2nnc3ccc(N4CCCC4)nn23)cc1
    0.1%, 0.7, -1.9, 0.2, -6.0, -8.9
Cc1ccc(CNC(=O)CSc2ccc(-c3ccco3)nn2)cc1
    1.5%, -0.2, -2.6, -3.6, 1.8, 0.9
O=S1c2ccccc2Oc2ccccc21
    1.7%, -0.7, -3.5, 11.0, -3.7, 16.2
CCC(=O)n1nc(-c2ccc(OC)cc2)nc1SC
    -0.1%, -0.1, -2.8, 2.6, -14.8, -8.7
CNc1ccccc1NC(=O)CCn1c(=S)oc2ccccc21
    1.1%, ., -1.1, 0.2, -2.4, .
COCCCn1c(-c2ccsc2)nc2c1c(=O)[nH]c(=O)n2Cc1ccccc1
    -1.3%, 0.4, -2.8, -3.4, -3.0, 10.3
Cc1c(F)cccc1NC(=O)CCCCCC1NC(=O)NC1C (configuration not stated)
    1.8%, -0.2, -0.8, -1.9, -8.7, -17.5
CN(C)S(=O)(=O)c1ccc(N2CCCC2)c(C(=O)NNC(=O)c2ccc(Br)cc2)c1
    1.2%, -1.0, -4.5, -0.1, -23.4, -0.3
O=C(CCC(=O)NNC(=O)COc1ccccc1)NCc1ccccc1
    3.1%[38.3 µM], -0.1, -0.1, 2.2, -10.1, -5.3
Cc1ccc(O)c(C(=O)c2cnc3c(c2)c(=O)n(C)c(=O)n3C)c1
    -0.4%, 1.4, -0.3, -0.2, -2.6, 22.3
CCC(=O)Nc1c2c(nn1-c1ccc(F)cc1)CS(=O)C2 (configuration not stated)
    0.0%, -0.5, 4.1, 25.7, -0.5, -23.9
O=C(NCc1ccccn1)c1ccc(CNS(=O)(=O)c2ccc(F)cc2)cc1
    -1.7%, 4.9, -4.5, -2.2, -1.7, 4.6
CN1CCN(S(=O)(=O)c2ccc(N3CCN(C(c4ccccc4)c4ccccc4)CC3)nc2)CC1
    0.9%, -0.9, -2.2, 10.2, -4.2, 10.5
N#CC1(NC(=O)CSc2nnc(-c3ccccc3F)o2)CCCCC1
    0.2%, -0.5, -4.8, -4.1, 2.3, 2.1
CC(C)C[C@H]1CN(CCCC[C@H]2CNC(=O)C(=O)N2Cc2ccccc2)C(=O)C(=O)N1CC1CCCCC1
    -0.3%, -1.0, ., 0.8, ., .
CCn1c(O)c(C=NC2CCCC(C)C2C)sc1=S (configuration not stated)
    18.4%, 0.7, 1.2, ?, -11.5, 20.6
Cc1nnc(NC(=O)CCS(=O)(=O)Cc2ccccc2)s1
    5.2%, 0.0, 4.0, -0.6, -0.8, -5.4
C[C@@H]1CCC(=O)N(C[C@@H](C)CSc2ccccc2)CC1
    0.2%, 0.9&-1.2, -0.8, 6.0, -4.4, 19.9
COc1ccc(S(=O)(=O)N2CCC(C(=O)NCC(c3cccs3)N(C)C)CC2)cc1 (configuration not stated)
    -1.1%, -0.8, -1.7, -0.6, -9.8, -5.4
COc1ccc(OC)c(C2=NOC(C(=O)Nc3cc(C)nn3-c3ccccc3)C2)c1 (configuration not stated)
    -0.3%, 0.0, -9.7, 3.1, -5.8, 11.0
COc1cc(CN2CCC(C)CC2)ccc1OCc1ccccc1
    0.4%, 0.8, -1.3, -4.5, -1.5, 3.6
COc1cccc(NC(=O)CN(C)C(=O)CN2C(=O)NC(C)(c3ccc(C)cc3)C2=O)c1 (configuration not stated)
    -0.5%, -0.8, 4.4, 1.7, -3.1, 14.4
CCC1(CC)NC(=O)N(CC(=O)OCC(=O)c2ccccc2OC)C1=O
    -1.3%, -0.1, -2.4, -1.6, -12.5, -4.1
Cc1ccc(CN2CCc3nc(SCC(=O)Nc4cccc(C)c4C)[nH]c(=O)c3C2)cc1
    -1.9%, 1.2, ., ., ., 2.3
COc1cccc(N=c2oc3c(C)ncc(CO)c3cc2C(N)=O)c1
    -2.6%[38.3 µM], -0.3, -2.5, ?, -0.8, -3.2
Cc1ccccc1-c1cnc(C(O)c2ccc(F)cc2)[nH]1 (configuration not stated)
    -0.7%, -0.4, -4.7, -1.3, -8.8, 24.4
CCNC(=O)CSc1nc(-c2ccc(F)cc2)cs1
    0.0%, 1.4, -3.0, -4.6, -0.8, 0.3
CCOc1ccc(C(=O)Nc2cc(-c3ccccc3)no2)cc1
    -1.9%, -0.3, ., ., ., -18.2
CN1C(=O)/C(=C/c2cc(N=Nc3ccccc3)ccc2O)SC1=S
    ?, -0.2, 0.0, -14.3, 14.4, -5.2
Clc1ccc(CNCCC2=CCCCC2)cc1
    4.8%[38.3 µM], 1.0, -0.2, 5.8, -9.0, 12.1
O=C(NC(=S)Nc1ccc(S(=O)(=O)N2CCCC2)cc1)C1CC1
    -0.7%, 0.4, -2.9, 2.6, -2.1, 22.5
O=C(Nc1ccn(CCCNCc2ccc3[nH]ccc3c2)c(=O)n1)OCc1ccccc1
    -0.9%, -0.1, -3.4, -11.6, ., -7.3
CCn1c(CC(=O)Nc2ccccc2)nnc1SCc1nc2ccccc2c(=O)[nH]1
    3.3%, 0.4, -0.3, -10.9, -11.4, -11.0
N#CC(C#N)=Cc1c(N2CCN(c3ccccc3)CC2)nc2ccccn2c1=O
    -0.4%, -0.9, -3.5, -10.5, -3.9, 20.2
CC(=O)N1CCc2cc(S(=O)(=O)NC(C(=O)NC3CCCc4ccccc43)C(C)C)ccc21 (configuration not stated)
    1.9%, -0.8, -2.4, -1.6, -5.3, 0.5
O=C(NC1CCCc2c1cnn2-c1cc(F)cc(F)c1)c1ccccn1 (configuration not stated)
    0.9%, 2.1, -5.1, 4.8, 0.5, 21.7
COc1ccc(-c2csc(C(O)c3cccc(Cl)c3)n2)cn1 (configuration not stated)
    10.0%, -0.6, -1.8, 1.5, -10.4, .
O=C(Nc1nnc([C@@H]2C[C@H](O)[C@@H](CO)O2)s1)c1cccs1
    1.5%, -0.7, 1.2, 2.6, 1.3, .
COc1ccc(-c2cc3ccc(OCC(C)=O)cc3oc2=O)cc1OC
    0.0%, -0.4, 3.7, -6.0, -8.6, -4.1
CC(OC(=O)Cn1[nH]c(=O)c2ccccc2c1=O)C(=O)Nc1ccc(Cl)cn1 (configuration not stated)
    2.3%, -0.4, -3.8, 4.6, 0.1, -4.4
COc1ccc(Cl)cc1NC(=O)CN(C)C(=O)c1cn(-c2ccccc2)nc1-c1cccs1
    0.5%, 0.7, -0.1, -16.0, -8.9, 0.7
COc1ccc(CNC(=O)c2ccc3c(Cl)c4c(nc3c2)CCCC4)c(OC)c1
    0.7%, 0.9, ., ., ., 21.9
CCOC(=O)Cn1nc(C)c(NC(=O)COc2ccc([N+](=O)[O-])c(C)c2)c1C
    -1.9%, 1.5, -2.6, 15.6, 1.3, -9.8
COC(=O)c1ccc(N2OC3(C)C=CC2CC3)cc1 (configuration not stated)
    -0.5%, -0.9, -4.5, -4.2, -1.3, -2.5

One compound at a time (already shown):
O=C(Nc1nnc([C@@H]2C[C@H](O)[C@@H](CO)O2)s1)c1cccs1 reads PINK1 expr mod: 1.5%; TRPML1 ag: -0.7; D2 agonist: 1.2; Six1-Eya2 blk: 2.6; D2 potentiator: 1.3; TRPML1 inh: .
COc1cccc(NC(=O)CN(C)C(=O)CN2C(=O)NC(C)(c3ccc(C)cc3)C2=O)c1 (configuration not stated) reads PINK1 expr mod: -0.5%; TRPML1 ag: -0.8; D2 agonist: 4.4; Six1-Eya2 blk: 1.7; D2 potentiator: -3.1; TRPML1 inh: 14.4
COc1ccc(CNC(=O)c2ccc3c(Cl)c4c(nc3c2)CCCC4)c(OC)c1 reads PINK1 expr mod: 0.7%; TRPML1 ag: 0.9; D2 agonist: .; Six1-Eya2 blk: .; D2 potentiator: .; TRPML1 inh: 21.9

Not a hit list. About 1% of those tested had a hit in this group.
